Bioassay records from PubChem.
PrP UTR inh: inhibition of PrP 5' UTR reporter expression; 340,000 compounds, 0.35% hits; cell-based PrP 5' UTR mRNA reporter, plate reader; inhibition, % (test concentration not listed);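 active = every replicate at 50% or more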;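 note: 0 = median of the neutral control wells; tested in H4 reporter cells; numbers are from one replicate; inactives centre near -14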
Bead autofluor: flagged as autofluorescent in microsphere protease counterscreen; compound autofluorescence counterscreen, microsphere flow cytometry; hits give high values; fluorescence intensity (no concentration beside the values); 360,000 compounds, 3.1% hits;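 active = at least 3 SD above the mean of all compounds, about 16000 in these data; inconclusive = too few beads counted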;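 note: 100 nL of 1 mM stock went into each well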
Sa ugtP lethal: compounds lethal to S. aureus RN4220 ugtP deletion mutant | AID 1259309 | 330,000 compounds, 0.54% hits | growth inhibition, % (no concentration beside the values) | OD600 growth, 16 h; some inactives read as strong as hits;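 active = z-score under -3 and OD600 up to 0.15 on both plates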;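 note: plate controls were untreated wells for no effect and antibiotic for full effect; wells of about 80 µL received 100 nL stock; the first replicate is given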
BJeLR lethal: BJeLR cell viability loss; BJeLR (HRASV12) viability, CellTiter-Glo ATP luminescence, 48 h; reference of the scale not given here; inhibition, % (concentration not given with the values); 300,000 compounds, 0.17% hits;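 active = replicate mean above 50%; inconclusive = above 50% but judged a plate artefact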;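 note: 50 nL library stock added to about 25 µL; numbers are from one replicate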
RN4220 kill: kills Staphylococcus aureus RN4220. S. aureus RN4220 growth, OD600, 16 h. inhibition, % (concentration not given with the values). 330,000 compounds, 0.33% hits. AID 1259311;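 active = z-score of -3 or lower and OD600 up to 0.18 on both plates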;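 note: plate controls were untreated cells for no effect and reference antibiotic for full effect; stock transfer was 100 nL into about 80 µL; one replicate is shown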
Mtb hypoxia rep: reduces hypoxia-regulated biosensor signal in M. tuberculosis; AID 1159583; M. tuberculosis hypoxia-regulated fluorescent reporter, fluorescence; 300,000 compounds, 0.1% hits; fluorescence inhibition, % (no concentration beside the values);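 active = 35 to 45% if threefold the growth effect, above 45% if 1.5-fold the growth effect; inactive = the rest, general growth blockers included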;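 note: wells of about 50 µL received 100 nL stock; 0% = vehicle wells and 100% = reference inhibitor wells; whole bacteria with a GFP reporter of the hypoxia response; strong numbers were not always called active; many hits fall short of the cut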
Mtb hypoxia rep growth: also measured in Mtb hypoxia rep; calls as there; growth inhibition, %; measured here: M. tuberculosis growth (absorbance);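 0% = vehicle and 100% = reference antibiotic; read after six days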
The depositor's hits bear a star; u = inconclusive; x = not tested or not shown.

Molecule,PrP UTR inh,Bead autofluor,Sa ugtP lethal,BJeLR lethal,RN4220 kill,Mtb hypoxia rep,Mtb hypoxia rep growth
N/C(=N\OC(=O)c1ccc(Cl)cc1)c1ccn[nH]1,-41,4382,5,0,2.4,7,-2
CCOC(=O)c1sc(Nc2nc(C)cc(C)n2)nc1C,-35,u,2,6,3.0,-2,5
COc1cccc(NC(=O)CN(C)C(=O)c2cc3c(s2)CCCCC3)c1,-21,4660,3,x,1.7,3,7
O=C(Cn1c(=O)oc2cc(S(=O)(=O)N3CCCCCC3)ccc21)NC1CCCCCCC1,-26,5993,10,2,-2.5,-3,-1
CC(=O)c1ccc(N2CCN(CC(O)c3ccccc3)CC2)cc1 (stereo unspecified),-22,3941,9,2,0.7,18,13
COc1ccc(NC(=O)CCS(=O)(=O)c2ccccc2Cl)cc1S(=O)(=O)Nc1ccc(Cl)cc1,-26,4912,8,13,1.6,-2,4
CC(C)CN(C(=O)c1cccc(Cl)c1)c1c(N)n(Cc2ccccc2)c(=O)[nH]c1=O,-8,3086,2,x,0.2,12,-12
C/C(=N\NC(=O)Cc1cccn1C)c1ccco1,-22,3549,x,-5,x,x,x

Additional entries.
Molecule,PrP UTR inh,Bead autofluor,Sa ugtP lethal,BJeLR lethal,RN4220 kill,Mtb hypoxia rep,Mtb hypoxia rep growth
Cc1c(C(=O)OCC(=O)N2CC(C)CC(C)C2)oc2ccccc12 (stereo unspecified),-16,6379,8,0,2.9,4,5
CCOC(=O)Cc1csc(NC(=O)/C=C/c2ccco2)n1,-22,x,-4,3,-2.8,-3,4
Cc1ccc(-c2nc(C=Nc3ccccc3)c(O)o2)cc1,-45,8583,10,4,13,6,11
CCN(CC)C(=O)C1CCN(Cc2ccc(OCc3ccccc3)cc2)CC1,-17,3885,-3,3,2.1,-5,9
Cc1ccc(SC(C)c2nc(-c3ccncc3)no2)cc1 (stereo unspecified),-32,2944,5,6,10,x,x
O=C(/C=C/c1ccc(F)cc1)Nc1ccc(S(=O)(=O)N2CCOCC2)cc1,2,4836,0,1,-1.4,-1,-5
CN(C(=O)CC1C(=O)NCCN1Cc1ccccc1F)C1CCOCC1 (stereo unspecified),8,4476,-4,-3,3.6,5,4
COc1ccc(OC)c(NC(=O)COC(=O)[C@H](Cc2ccccc2)NC(=O)c2ccco2)c1,-8,3705,9,x,6.2,13,12

The list goes on.
Molecule,PrP UTR inh,Bead autofluor,Sa ugtP lethal,BJeLR lethal,RN4220 kill,Mtb hypoxia rep,Mtb hypoxia rep growth
Cc1ccc(S(=O)(=O)N=C(c2ccc(F)cc2)N2CCOCC2)cc1,x,x,10,x,4.8,11,14
NC(=O)c1nsc(C(=O)N(c2cccc(O)c2)C(C(=O)NC2CCCC2)c2ccc(Cl)cc2)c1N (stereo unspecified),-22,6245,6,-2,1.2,1,-3
CCN1CCN(S(=O)(=O)c2ccc(Cl)c(C(=O)N(C)Cc3ccco3)c2)CC1,-5,x,6,x,4.4,6,9
O=C(NCCCN1CCOCC1)c1ccc(Cl)c([N+](=O)[O-])c1,x,u,6,-11,3.2,4,1
O=C(NCC(=O)N1CCOCC1)c1ccc(Br)o1,-25,5642,-2,2,1.6,6,-1
Nc1ccc(N2CCN(CCCCN3C(=O)C4CCCN4C3=O)CC2)cc1 (stereo unspecified),-28,1304,-6,6,8.4,3,3
Cc1ccc(C[n+]2cc(-c3ccc(Cl)cc3)n3c2CCC3)cc1,-35,u,-5,9,-2.0,-1,22
Cc1nnc(SCC(=O)Nc2nc(-c3ccc(F)cc3)cs2)[nH]c1=O,-11,3936,x,-4,x,x,x

(list continues)
Molecule,PrP UTR inh,Bead autofluor,Sa ugtP lethal,BJeLR lethal,RN4220 kill,Mtb hypoxia rep,Mtb hypoxia rep growth
Cc1cc(NC(=O)CSc2nc3ccsc3c(=O)n2NC(=O)c2ccccc2)no1,-25,10892,10,x,6.8,0,0
O=c1cc(-c2ccc(O)cc2)oc2cc(O)cc(O)c12,-35,5574,-9,-3,7.9,8,-3
CC1CCCCN1S(=O)(=O)c1ccc2c(c1)CCN2C(=O)C1CCC1 (stereo unspecified),-4,3369,1,4,7.4,x,x
CCOC(=O)C1(C)C=C(Nc2ccc(C)cc2)C(=O)N1c1ccc(C)cc1 (stereo unspecified),-12,4672,5,-4,-2.3,1,-2
CCc1ccc(C(=O)COC(=O)c2ccc(Cl)nc2)cc1,-45,4920,6,2,13,7,1
COC(=O)C1C(O)=C(C=NC2CCCCC2)C(=O)CC1(C)C (stereo unspecified),-23,5210,-4,-7,-3.5,x,x
CCN=C1NN=C(c2cc(C)n(CCc3ccccc3)c2C)CS1,-47,3123,24,x,-5.9,0,12
CCCCCC(CC(=O)NO)C(=O)NC(C(=O)N1CCCC1CO)C(C)C (stereo unspecified),-18,6114,64,x,36,x,x

(more compounds)
Molecule,PrP UTR inh,Bead autofluor,Sa ugtP lethal,BJeLR lethal,RN4220 kill,Mtb hypoxia rep,Mtb hypoxia rep growth
Cc1ccc(-c2ccc(C)c(N)c2C)c(C)c1N,-16,3208,-12,3,4.1,6,2
COCCN1C(=O)N[C@@H](c2cccc(C(F)(F)F)c2)[C@H](C(C)=O)[C@H]1C,-20,3616,x,6,x,x,x
CCN(CC)C(=O)c1ccc(-c2nnc(Nc3cccc(O)c3)c3ccccc23)cc1,-10,3903,6,-9,2.7,7,-3
Cc1oc(-c2cccc(F)c2)nc1CN(Cc1ccccc1)C[C@@H]1CCC(=O)N1,0,2112,4,-9,5.8,7,3
COc1nc(Nc2ccc3c(c2)OCO3)nc(OC)n1,-10,4303,12,4,4.2,13,8
COCc1cc(=O)[nH]c(Nc2nc3ccc(C)cc3o2)n1,-42,3174,-4,7,18,-19,14
CCN(CC)c1ccc(/C=C2/C(=O)c3ccc(C(=O)O)cc3C2=O)cc1,-75,4961,-5,x,5.1,6,5
Nn1c(SC/C=C/c2ccccc2)nnc1-c1ccncc1,-9,2731,0,1,3.5,-1,3

Following part:
Molecule,PrP UTR inh,Bead autofluor,Sa ugtP lethal,BJeLR lethal,RN4220 kill,Mtb hypoxia rep,Mtb hypoxia rep growth
NNC(=O)c1cccc(COCC(F)(F)C(F)F)c1,-28,4151,4,-1,1.4,-3,-8
CCOc1ccc(CCNC(=O)COC(=O)c2ccc[nH]c2=O)cc1OCC,-10,4091,-1,x,3.9,17,4
CCCC(=O)Nc1c(-c2ccc(C)cc2)c(=O)c2ccccc2n1C,-10,3856,10,-3,4.3,-2,5
CCN(CC)c1ccc(/C=N/N2CCN(c3ccccn3)CC2)cc1,-45,3467,x,-10,x,x,x
C=CCn1c(SCC(=O)NCC2CCCO2)nc2sc(C)c(C)c2c1=O (stereo unspecified),-22,5945,1,-4,2.1,4,17
CN(CC(=O)Nc1ccc(C#N)cc1)CC(=O)Nc1ccc(N2CCOCC2)cc1,-8,2345,5,0,1.2,12,4
CC(C)C(=O)Nc1ccc(-c2nc3cccnc3o2)cc1,-30,4227,-8,-17,5.9,17,14
O=C(NN=Cc1ccco1)c1ccc(Br)o1,x,x,3,x,0.4,7,5

(continued)
Molecule,PrP UTR inh,Bead autofluor,Sa ugtP lethal,BJeLR lethal,RN4220 kill,Mtb hypoxia rep,Mtb hypoxia rep growth
CNc1nnc(-c2ccc(C)cc2)c2ccccc12,3,3246,-6,-4,2.9,24,10
CCCCNC(=S)NNC(=O)C12CC3CC(CC(C3)C1)C2,-17,2326,2,2,3.1,x,x
CCCC(=O)N(CC(=O)Nc1sc(C)c(C)c1C(N)=O)Cc1ccccc1,-24,3250,9,5,1.4,0,7
COC(=O)C1C2CC3c4[nH]c5cc(OC)ccc5c4CCN3CC2CC(OC(=O)c2cc(OC)c(OC)c(OC)c2)C1OC (stereo unspecified),x,x,-3,x,3.0,-13,-1
CC(=O)c1ccc(NC(=O)CCC(=O)N2CC(C)Oc3ccc(C)cc32)cc1 (stereo unspecified),-3,4046,5,-4,0.7,9,1
NC(=O)C1=CC(c2coc3ccccc3c2=O)CC(OCc2ccc(CO)cc2)O1 (stereo unspecified),x,x,-7,x,-0.6,-3,-6
O=C(Cc1ccc(Cl)cc1)Nc1cccc2ncccc12,10,4558,-2,5,0.8,4,-4
CCN1CCN(S(=O)(=O)c2ccc(Cl)c(C(=O)NC3CCCC3)c2)CC1,-26,4401,4,-3,-2.1,0,-8

Carrying on.
Molecule,PrP UTR inh,Bead autofluor,Sa ugtP lethal,BJeLR lethal,RN4220 kill,Mtb hypoxia rep,Mtb hypoxia rep growth
O=c1cccc2n1C[C@H]1C[C@@H]2CN2CCCC[C@@H]12,-3,3416,16,8,3.9,1,3
CCOc1ccccc1NC(=O)C(OC(=O)c1ccc(O)cc1)c1ccccc1 (stereo unspecified),-13,2296,-19,6,0.0,7,1
Cc1ccccc1-n1cc(CNCc2c(C(=O)N(C)C)nc3ccc(Cl)cn23)cn1,-17,4286,3,4,2.2,-2,10
Cc1c(C(=O)O)oc2c1C(O)CCC2 (stereo unspecified),-21,11377,1,-5,5.9,0,10
O=C(NCc1cccnc1)C(=O)NC1CCCCC1,-13,2010,0,-1,-4.1,-11,-2
CCOc1ccc(CN2CCCC(C(=O)c3ccccc3OC)C2)cc1 (stereo unspecified),-10,3550,9,-8,3.5,-6,-4
O=C(N/N=C/c1sc(N2CCOCC2)nc1-c1ccccc1)c1ccccc1Cl,-5,3423,x,-10,x,x,x
Cc1ccc(C2CC(C(F)(F)F)n3nc(C(=O)NCc4ccco4)cc3N2)cc1 (stereo unspecified),-4,24280*,-8,-3,-1.1,0,13

(more compounds)
Molecule,PrP UTR inh,Bead autofluor,Sa ugtP lethal,BJeLR lethal,RN4220 kill,Mtb hypoxia rep,Mtb hypoxia rep growth
O=C(O)c1ccc2c(c1)OCCOCCOCCOCCOCCO2,-12,3789,3,-7,1.1,0,-2
O=C(Nc1cccnc1)c1ccc2c(c1)C(=O)N(Cc1cccnc1)C2=O,5,23004*,4,-10,-0.6,0,3
CC(/C=C/c1cccc([N+](=O)[O-])c1)=NNC(=O)c1ccncc1,x,x,0,x,3.0,-4,15
CC(OC(=O)Cc1c(F)cccc1Cl)C(=O)NC1(C#N)CCCCC1 (stereo unspecified),-24,5148,2,14,2.9,1,2
CCN(CC)CCN(C)c1ccc(N2C(=O)C3CC=CCC3C2=O)cc1[N+](=O)[O-] (stereo unspecified),-4,5541,0,-16,2.2,3,19
COc1cc(C=NOCC(=O)NC2CCCCC2C)ccc1OCc1ccc(Cl)cc1 (stereo unspecified),x,x,-7,x,-5.8,-4,5
CC1=Nc2ccccc2N=C(NC(=O)c2ccccc2)C1c1ccc(Cl)cc1 (stereo unspecified),-19,4811,-7,-6,-5.8,7,2
COCC(=O)Nc1ccccc1C#N,4,3792,-2,-4,1.8,2,7

The list goes on.
Molecule,PrP UTR inh,Bead autofluor,Sa ugtP lethal,BJeLR lethal,RN4220 kill,Mtb hypoxia rep,Mtb hypoxia rep growth
CCN(CC)C(=O)CSc1nnc([C@@H](N)Cc2ccccc2)o1,x,8529,-3,-20,-1.9,-3,-2
O=C(Nc1ccc(F)c(F)c1)c1cc(S(=O)(=O)N2CCN(c3ccccn3)CC2)ccc1F,-19,5987,-9,-5,-2.0,8,-2
COc1ccccc1Sc1nc(-c2ccccn2)ncc1OC,-5,4679,-1,0,10,1,7
O=C(COC(=O)CCNS(=O)(=O)c1cccs1)Nc1cc(C(F)(F)F)ccc1Cl,-17,3040,-2,x,3.8,7,9

Entries above that contain bromine (2):
Molecule,PrP UTR inh,Bead autofluor,Sa ugtP lethal,BJeLR lethal,RN4220 kill,Mtb hypoxia rep,Mtb hypoxia rep growth
O=C(NCC(=O)N1CCOCC1)c1ccc(Br)o1,-25,5642,-2,2,1.6,6,-1
O=C(NN=Cc1ccco1)c1ccc(Br)o1,x,x,3,x,0.4,7,5
